Screens deposited in PubChem by several laboratories.
LANA-H2B inh – blocks KSHV LANA binding to histone H2A/H2B. cell-free LANA-H2A/H2B peptide, fluorescence polarization. inhibition, % (concentration not given with the values). 320,000 compounds, 0.6% hits. AID 2629; in the data active = inhibition mostly above about 10%, no sharp cut-off; inactive = mostly below about 6.7%;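 also: stock transfer was 7.5 nL into about 10 µL; 0% = median of vehicle wells and 100% = median of positive control wells; one replicate is shown; the record names a cut of 25% in any replicate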
Beta cell apopt – beta cell apoptosis inhibition | INS-1E cytokine-induced death, ATP luminescence, 48 h; percent of positive-control rescue, neutral wells zero | protection from apoptosis, % (concentration not given with the values) | 300,000 compounds, 0.8% hits | AID 435005;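 active = all replicates at 75% or more, or half of them and the mean; inconclusive = half reach 75% but not the mean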;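 also: 0% = cytokine-treated negative control wells and 100% = positive control rescue; higher means more ATP so stronger rescue from cytokine killing; wells of about 40 µL received 100 nL stock; the first replicate is given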
Vif TR-FRET – HIV-1 Vif–A3G interaction blockers – biochemical, TR-FRET, GST-Vif 1-94, biotin-A3G peptide, dose response retest, primary screen (AID 1117319); 260,000 compounds, 0.57% hits; one-dose inhibition, %; IC50 in µM for titrated hits; TR-FRET GST-Vif / biotin-A3G peptide binding; higher % means a stronger effect; test concentration not given here; strong numbers were not always called active;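 active = above the screen mean plus three standard deviations and confirmed in dose response; inconclusive = results disagree or hit not tested in dose response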;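 also: Vif residues 1-94 fused to GST binding biotinylated APOBEC3G peptide 110-148; 0% = full assay without inhibitor and 100% = GST in place of GST-Vif; retest series ran down from 100 µM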
RanGTP-Impb inh – inhibitors of RanGTP-importin-beta interaction, primary screen, biochemical, FRET, CFP-Ran, YFP-importin-beta, homogeneous; cell-free CFP-Ran/YFP-importin-beta FRET ratio; inhibition, % (test concentration not listed); 300,000 compounds, 1.1% hits;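 active = most replicates above 15%; inconclusive = exactly half above 15%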;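 also: 0% = DMSO wells and 100% = Ran loaded with GDP instead of GTP; wells of about 40 µL received 100 nL stock; the first replicate is given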
Bfl-1 A1 inh – inhibitors of the anti-apoptotic protein A1, read as caspase activation; AID 2462; 330,000 compounds, 0.066% hits; MEF A1-2A-BIM cells, Caspase-Glo 3/7 luminescence, 3 h; percent of clofoctol response, vehicle zero; caspase activation, % (test concentration not listed);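 active = over half of replicate activation scores above 10%, or exactly half above 10 with the replicate mean above 10; inconclusive = replicate mean below 10 yet half the replicates above 10; inactive = over half of replicates below 10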;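 also: wells of about 30 µL received 50 nL stock; many hits fall short of the cut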
T cruzi repl – T. cruzi replication inhibition; T. cruzi beta-gal in NIH3T3, luminescence, 90 h; inhibition, % (test concentration not listed); 300,000 compounds, 1.4% hits;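 active = mean inhibition across valid replicates above about 55%, limit read from the data; inconclusive = mean below that limit but half or more replicates reach it; inactive = mean below it, under half of replicates reach it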;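 also: signal also drops with host cell toxicity which is not excluded here; 0% = plate median of DMSO wells and 100% = zero luminescence signal; higher percent means less beta-gal luminescence so fewer parasites; stock transfer was 50 nL into about 50 µL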
Calb FLC – C. albicans growth modulation with fluconazole; 300,000 compounds, 0.57% hits; growth inhibition, % (test concentration not listed); AID 1979; C. albicans CaCi-2 (fluconazole-resistant clinical isolate) + fluconazole, Alamar Blue growth, 48 h;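 active = most replicates above 75%; inconclusive = exactly half above 75%; inactive = most below 75%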;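 also: all wells also contain fluconazole at 8 µg/ml as a sub-toxic cotreatment; 0% = median of DMSO wells and 100% = median of geldanamycin control wells; wells of about 8 µL received 7.5 nL stock; the first replicate is given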
AF4-AF9 inh – blocks AF4 peptide binding to human AF9; inhibition, % at 10 µM; 350,000 compounds, 0.47% hits; AlphaScreen, biotin-AF4 peptide binding to FLAG-AF9;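 active = every replicate reaching a set inhibition limit, whatever the replicate mean, cut at about 25% in these data; inconclusive = mean inhibition reaches that limit but some replicates miss it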;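 also: 0% = plate neutral control median and 100% = total signal loss; the record names both 10 and 1 µM as test concentration; the first replicate is given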
Target sequence (P42568 whole entry, looked up): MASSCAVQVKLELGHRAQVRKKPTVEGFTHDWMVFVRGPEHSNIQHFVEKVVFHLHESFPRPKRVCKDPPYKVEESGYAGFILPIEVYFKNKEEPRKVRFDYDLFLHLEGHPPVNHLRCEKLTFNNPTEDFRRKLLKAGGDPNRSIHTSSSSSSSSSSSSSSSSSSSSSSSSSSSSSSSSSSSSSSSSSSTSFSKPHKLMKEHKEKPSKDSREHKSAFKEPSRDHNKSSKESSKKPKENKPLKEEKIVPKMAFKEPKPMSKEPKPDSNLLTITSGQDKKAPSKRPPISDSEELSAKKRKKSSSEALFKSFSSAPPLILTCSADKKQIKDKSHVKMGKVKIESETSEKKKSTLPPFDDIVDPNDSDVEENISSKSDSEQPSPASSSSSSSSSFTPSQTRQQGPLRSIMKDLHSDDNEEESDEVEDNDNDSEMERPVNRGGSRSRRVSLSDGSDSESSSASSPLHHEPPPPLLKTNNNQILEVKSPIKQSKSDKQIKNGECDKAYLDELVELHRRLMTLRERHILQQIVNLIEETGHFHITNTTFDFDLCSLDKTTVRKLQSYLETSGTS
Starred values were filed as active, the others as inactive; ? = inconclusive; nt = no result given; & = joins results of further samples. Only part of the results is shown. The share of hits here may be higher or lower than overall.

SMILES | LANA-H2B inh | Beta cell apopt | Vif TR-FRET | RanGTP-Impb inh | Bfl-1 A1 inh | T cruzi repl | Calb FLC | AF4-AF9 inh
CCC(C)N=Cc1c(O)n(-c2ccccc2)c(=O)[nH]c1=O (centres undefined) | -0.7 | -8 | -3% | -1.9 | 0.3 | -1 | -2 | nt
COc1cccc(-n2c(=S)[nH]c3ccccc3c2=O)c1 | 1.6 | 4 | nt | 0.6 | -0.1 | -10 | -3 | -17
Nc1ccc2cc(Br)ccc2c1 | 3.2 | 0 | -5% | 2.9 | 1.0 | -9 | 8 | 3.1
Cn1ncc(Cl)c1C(=O)N1CCC2(CC1)OCCO2 | -1.8 | nt | 6% | -3.3 | 0.0 | -6 | 8 | -2.0
CC12CN3CC(C)(CN(C1)C3c1ccco1)C2=O (centres undefined) | 2.1 | -4 | 6% | ? | 0.6 | 2 | nt | nt
Cn1c(O)c(C=Nc2ccc(Br)cc2)c(=O)n(C)c1=O | 1.4 | -2 | nt | 6.8 | -0.6 | ? | 5 | -0.1
O=c1[nH]c(=S)n(C2CC2)c(O)c1C=Nc1cccc(C(F)(F)F)c1 | 0.5 | -4 | -99% | 4.4 | 0.5 | 0 | 2 | -9.5
C(=NC12CN3CN(CN(C3)C1)C2)c1cccs1 | 5.7 | -1 | 10% | -11 | 1.0 | 8 | -5 | 5.0
CC1CCC[C@H](O)CCCCCc2cc(O)cc(O)c2C(=O)O1 (some centres undefined) | -2.3 | -6 | -4%&30% | -3.8 | -0.7 | 1 | nt | -4.4
COC(=O)C1=C(c2ccccc2)C[C@@H]2CC[C@H]1N2C(=O)N1CCOCC1 | 4.6 | 0 | nt | 5.1 | 0.3 | -8 | -10 | -0.3
Cc1oc(-c2ccc(Cl)cc2)nc1CS(=O)CC(=O)N1CCC2(CC1)OCCO2 (centres undefined) | 6.2 | 1 | 23%&0% | 0.6 | 0.8 | -6 | -13 | nt
CCCCCn1c(=O)c(C(=O)Nc2nc(CC(=O)OCC)cs2)c(O)c2ccccc21 | -0.1 | 2 | -8% | 0.1 | 1.1 | 24 | -26 | -2.5
COc1ccc(-c2nc3ccc(C(=O)N4CCC5(CC4)OCCO5)cc3nc2-c2ccc(OC)cc2)cc1 | 1.7 | 19 | 3% | 1.5 | 0.1 | 1 | 5 | -2.1
Cc1nn(Cc2ccccc2)c(C)c1C(=O)OCC(=O)Nc1cccc(S(N)(=O)=O)c1 | -6.1 | 1 | -2% | 1.2 | 0.0 | 9 | 29 | -0.6
CCC(C)NC(=O)CN1C(=O)CN=C(c2ccccc2)c2ccccc21 (centres undefined) | 3.1 | -12 | nt | 6.0 | -0.2 | 10 | 12 | 0.1
C[C@]12CC[C@H](O)CC1=CC[C@@H]1[C@@H]2CC[C@]2(C)C(=O)CC[C@@H]12 | -1.4 | -5 | nt | 0.7 | -0.8 | -6 | nt | -3.4
c1ccc2c(N3CCNCC3)cccc2c1 | 2.9 | -13 | nt | -1.7 | -0.4 | 5 | nt | -2.7
O=P1(NCCCl)OCCCN1CCCl (centres undefined) | 0.9 | 0 | nt | nt | 1.4 | nt | nt | -1.7
CCCCn1c(=O)c(C=Nc2cccnc2Cl)c(O)n(CCCCl)c1=O | 5.7 | -4 | nt | -0.1 | 0.2 | -10 | 31 | -0.5
CCC(=O)c1cn(Cc2ccccc2)c2ccccc12 | 4.4 | -7 | nt | 2.8 | 0.6 | -2 | -15 | -3.0
COc1ccc(OC)c(N2C(=O)NC(=O)C3(Cc4cc(C)ccc4N(C)C3)C2=O)c1 (centres undefined) | 3.2 | -2 | 2% | -2.4 | 0.5 | 6 | -4 | nt
CN1CCN(Cc2cn3cccnc3n2)CC1 | 1.3 | -4 | 1% | -1.6 | 0.9 | -8 | 7 | -1.4
COC(=O)C1=C(c2cccc(OCc3ccccc3)c2)C[C@@H]2CC[C@H]1N2C(=O)NCc1ccc([N+](=O)[O-])cc1 | 0.7 | -2 | nt | nt | 1.3 | nt | nt | -0.8
O=C(Cc1ccccc1)Oc1ccc([N+](=O)[O-])cc1 | -1.8 | -3 | nt | -0.6 | 0.5 | -2 | -3 | -0.5
COC(=O)C1=C(c2cccc(OCc3ccccc3)c2)C[C@@H]2CC[C@H]1N2C(=O)NCc1ccccc1OC | -0.7 | 2 | nt | nt | -0.9 | nt | nt | 2.2
CC(C)c1ccc(-n2c(O)c(C=NCCN3CCNCC3)c(=O)[nH]c2=S)cc1 | 5.8 | 2 | -3% | -0.4 | ? | -3 | 0 | 3.1
O=c1c2ccccc2nc(-c2ccccc2)n1-c1ccccc1O | -2.0 | 1 | nt | 4.3 | -0.1 | 11 | 1 | -1.2
COc1cccc(N2C(=O)NC(=O)/C(=C/c3ccc([N+](=O)[O-])s3)C2=O)c1 | 1.6 | 5 | 7.2µM* | -4.1 | 0.4 | 41 | -1 | 2.9
CCc1ccc(N2C(=O)NC(=O)/C(=C/c3cccn3CCOc3ccc(C)cc3)C2=O)cc1 | -15 | 10 | nt | 2.2 | -0.6 | -8 | 25 | 2.9
O=C(c1ccccc1)C1NC1c1ccccc1 (centres undefined) | -2.5 | 5 | -3% | 2.9 | -1.3 | 5 | 2 | -3.3

Structures listed so far that contain a thiophene ring, fused or not, in the order listed:
SMILES | LANA-H2B inh | Beta cell apopt | Vif TR-FRET | RanGTP-Impb inh | Bfl-1 A1 inh | T cruzi repl | Calb FLC | AF4-AF9 inh
C(=NC12CN3CN(CN(C3)C1)C2)c1cccs1 | 5.7 | -1 | 10% | -11 | 1.0 | 8 | -5 | 5.0
COc1cccc(N2C(=O)NC(=O)/C(=C/c3ccc([N+](=O)[O-])s3)C2=O)c1 | 1.6 | 5 | 7.2µM* | -4.1 | 0.4 | 41 | -1 | 2.9

Later entries:
SMILES | LANA-H2B inh | Beta cell apopt | Vif TR-FRET | RanGTP-Impb inh | Bfl-1 A1 inh | T cruzi repl | Calb FLC | AF4-AF9 inh
Cc1cccc(-n2c(O)c(C=NCCN3CCNCC3)c(=O)[nH]c2=S)c1 | -1.6 | -2 | -12% | -0.4 | -1.2 | -10 | 8 | -3.7
CN1CCN(c2ccc(N)cc2Cl)CC1 | -4.3 | -7 | ? | -2.3 | 0.5 | 47 | 13 | 88*
CCN(CC)CCCN=C(C)c1c(O)n(-c2ccc(C)cc2)c(=O)[nH]c1=O | 5.9 | -4 | 2% | -1.4 | ? | -7 | -4 | -5.6
COC1=CC2[C@@H]3Cc4ccc(OC)c(O)c4[C@]2(CCN3C)CC1=O (some centres undefined) | -7.3 | -9 | 6% | nt | -0.1 | nt | nt | 1.0
CC(Cc1ccccc1Sc1ccc(O)cc1)N(C)C (centres undefined) | 6.3 | -7 | 0% | 2.3 | 0.7 | -32 | 12 | nt
CCOc1ccc(/C=C2/C(=O)NC(=O)N(CCc3ccc(F)cc3)C2=O)cc1 | -1.0 | -1 | 19% | 4.3 | -0.2 | -18 | 23 | -3.8
CCOC(=O)/C(=N\Nc1ccccc1)N1CC1 | -0.9 | -4 | 4% | 1.3 | 0.0 | 1 | -41 | -0.2
CCN(CC)c1ccc(N=Cc2c(O)n(CCc3ccc(OC)c(OC)c3)c(=O)[nH]c2=O)cc1 | 6.1 | -1 | 44µM* | -8.0 | -0.5 | 14 | 7 | nt
C=CCn1c(O)c(C(CC)=NCCC2=CCCCC2)c(=O)[nH]c1=O | -1.2 | nt | 11% | 0.5 | -0.1 | 26 | 11 | nt
O=C(c1cc(C(=O)NCc2ccc(Cl)cc2)c(=O)n(Cc2ccc(Cl)cc2)c1)c1cc(F)ccc1O | 0.9 | 30 | 8% | -2.2 | -0.2 | 46 | 25 | ?
CCN1CCN(C(=O)Cc2coc3ccc4ccccc4c23)CC1 | 2.1 | -4 | ? | -1.0 | 0.6 | 4 | 8 | nt
Cc1ccc2c(c1)C1CN(C)CCC1N2C(=O)COc1ccc(S(=O)(=O)N2CCOCC2)cc1 (centres undefined) | -7.0 | -3 | 0% | -2.5 | 0.2 | 29 | -2 | -0.8
CC[C@@]1(O)C(=O)OCc2c1cc1n(c2=O)Cc2cc3ccccc3nc2-1 | 0.7 | 103* | -9% | -2.9 | 0.3 | 56* | nt | nt
CCOC(=O)C1=C(N)Oc2c(c(=O)oc3ccccc23)C12C(=O)N(C)c1ccccc12 (centres undefined) | 0.8 | -2 | 24% | -1.4 | 0.0 | 0 | -8 | nt
CC(C)Nc1ccc(Nc2ccccc2)cc1 | -3.1 | 113* | 9.2µM* | 0.5 | 1.0 | 56* | -19 | ?
CC12CN3CN(C1)CC(C)(C3)C2=NO | -3.5 | -4 | -9% | -2.4 | 0.3 | -17 | 0 | nt
CN1C(=O)NC(=O)C(C)(C2=CCCCC2)C1=O (centres undefined) | -1.3 | 3 | nt | -0.3 | 0.5 | -16 | -6 | nt
COc1cc(C2SCC(=O)Nc3c2c(=O)[nH]n3C2CCCCCC2)cc(OC)c1OC (centres undefined) | -4.3 | -4 | 2% | 0.6 | -0.3 | -3 | 4 | nt
COc1cccc(-n2c(O)c(C=Nc3c(C)n(C)n(-c4ccccc4)c3=O)c(=O)[nH]c2=O)c1 | -0.6 | -4 | -2% | -0.3 | 0.2 | -16 | 2 | -0.1
CC(C(=O)O)N(C(=O)c1ccccc1)c1ccc(F)c(Cl)c1 (centres undefined) | -1.8 | 2 | -3% | 0.2 | 1.0 | 0 | -5 | -1.0
COc1ccc(CC2(CCc3ccccn3)C(=O)NC(=O)N(c3ccccc3C)C2=O)cc1OC (centres undefined) | 2.2 | 4 | 8% | 4.3 | 0.7 | -13 | 10 | -0.7
COc1ccc(NC(=O)c2cc([N+](=O)[O-])ccc2N2CCNCC2)cc1 | -1.0 | 2 | nt | 2.8 | -0.3 | -11 | 19 | -0.5
CC1(C)N=C(c2ccccc2)[C@@H]2C(c3ccc([N+](=O)[O-])cc3)N21 (some centres undefined) | 3.5 | 0 | 1% | -2.8 | -0.4 | -8 | -4 | -3.2
COC(=O)Cn1cc(/C=C2\C(=O)NC(=O)N(c3ccccc3)C2=O)c2ccccc21 | 1.2 | nt | -5% | -2.0 | 0.0 | -8 | -1 | 1.7
Cc1ccc(OC(F)F)c(N2C(=O)C3C4CCC(O4)C3C2=O)c1 (centres undefined) | -4.6 | 1 | nt | nt | -1.1 | nt | nt | -5.4
COc1ccc2c(c1)[C@]13CCCCC1C(C2)N(C)CC3 (some centres undefined) | 3.1 | -1 | nt | -1.2 | -0.3 | -21 | -11 | 2.9
C=CCNC(=O)c1c(N)n(CCN2CCOCC2)c2nc3ccccc3nc12 | -0.6 | 2 | 3% | 80* | 0.3 | -6 | 38 | nt
O=c1[nH]c(=S)[nH]c(O)c1N=Nc1ccc(S(=O)(=O)N2CCc3ccccc32)cc1 | -4.0 | 23 | nt | -2.8 | -0.5 | -6 | 49 | 6.8
